# Screening data as filed in PubChem.
# TRPML1 agonist – qHTS for Agonists of the Human Mucolipin Transient Receptor Potential 1 (TRPML1) | Mucolipin-1 (Homo sapiens), Q9GZU1 | TRPML1-expressing cells, Ca2+ dye fluorescence, FDSS; host cell line not named in the record; reference of the full effect not given here | activation, % (concentration not given with the values) | 410,000 tested, 0.12% active; in the data active = activation above about 50%; inconclusive = about 30% to 50%; inactive = below about 30%; also: 0% is about no effect; the text of the record puts the active cut at 80%
#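 Tetracycline-induced TRPML1-DL cells are seeded and incubated overnight before loading with a no-wash Ca2+ dye and quencher. Agonist activity is taken from the 110 s fluorescence read following compound pin-transfer on an FDSS, before EC80 54-4 challenge.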
# D2 ag – Beta-Arrestin HTS for Positive Allosteric Modulators of the Human D2 Dopamine Receptor: Agonists; DiscoveRx PathHunter D2 beta-arrestin, luminescence, 90 min; 100% = 57 uM dopamine signal; 360,000 tested, 0.084% active; activation, % (no concentration beside the values); D(2) dopamine receptor (Homo sapiens), P14416; in the data active = activation above about 40%; inconclusive = about 15% to 40%; inactive = below about 15%; also: compound concentration not given in the record; the text of the record calls up to 30% inactive
#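 DiscoveRx PathHunter D2 beta-arrestin cells (2,100/well) attached overnight, then compound-stimulated 90 min at 37 C in HBSS/10 mM HEPES/0.1% Tween-20 buffer; beta-galactosidase complementation read by luminescence after 1 h at ambient temperature. Dopamine 57 uM final (EC100) as control.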
# D2 PAM – Beta-Arrestin HTS for Positive Allosteric Modulators of the Human D2 Dopamine Receptor: Potentiators. D(2) dopamine receptor (Homo sapiens), P14416. DiscoveRx D2 beta-arrestin cells, luminescence, 90 min; 100% = 57 uM dopamine signal. potentiation, % (no concentration beside the values). 360,000 tested, 0.23% active. AID 624464, 2012; active = potentiation of 50% or more; inconclusive = 30% to 50%; inactive = 30% or less;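 also: compound concentration not given in the record; tested on top of an EC20 dose of dopamine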
#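 PathHunter beta-arrestin assay in DiscoveRx D2 cells. Compounds were added with an EC20 of dopamine (50 nM final) for 90 min at 37 deg C. Luminescence was read 1 h after detection reagent, with 57 uM dopamine as the EC100 control.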
# CtBP-E1A inh – qHTS Assay for Inhibitors of the CtBP/E1A Interaction | AlphaScreen GST-E1A/His-CtBP binding, 1536-well; stronger effect = lower value; control for the full effect not named in the record | activity change, % (concentration not given with the values) | 340,000 tested, 0.49% active | AID 651724, 2012 | CtBP / adenovirus E1A interaction (AlphaScreen); in the data active means activity change below about -65%; inconclusive means about -30% to -65%; inactive means above about -30%; also: % is scaled to controls: 0 for no effect and ±100 for the full control effect
#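 In 5 uL wells, 23 nL compound meets equimolar GST-E1A and His-CtBP (5X stock 125 nM each) for 2 h, 37 °C. Beads (5X, 50 ug/mL) then 1 h, 37 °C, dark.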
# Six1-Eya2 blk – qHTS Assay for Inhibitors of the Six1/Eya2 Interaction; 360,000 tested, 0.56% active; Homeobox protein SIX1 (Homo sapiens) + Protein phosphatase EYA2 (Homo sapiens), …; AID 651725, 2012; AlphaScreen GST-Six1/His-Eya2 binding, biochemical; stronger effect = lower value; control for the full effect not named in the record; activity change, % (no concentration beside the values); in the data active = activity change below about -65%; inconclusive = about -30% to -65%; inactive = above about -30%; also: % is scaled to controls: 0 for no effect and ±100 for the full control effect; compound concentration not given in the record
# Target sequence (O00167 whole entry, looked up): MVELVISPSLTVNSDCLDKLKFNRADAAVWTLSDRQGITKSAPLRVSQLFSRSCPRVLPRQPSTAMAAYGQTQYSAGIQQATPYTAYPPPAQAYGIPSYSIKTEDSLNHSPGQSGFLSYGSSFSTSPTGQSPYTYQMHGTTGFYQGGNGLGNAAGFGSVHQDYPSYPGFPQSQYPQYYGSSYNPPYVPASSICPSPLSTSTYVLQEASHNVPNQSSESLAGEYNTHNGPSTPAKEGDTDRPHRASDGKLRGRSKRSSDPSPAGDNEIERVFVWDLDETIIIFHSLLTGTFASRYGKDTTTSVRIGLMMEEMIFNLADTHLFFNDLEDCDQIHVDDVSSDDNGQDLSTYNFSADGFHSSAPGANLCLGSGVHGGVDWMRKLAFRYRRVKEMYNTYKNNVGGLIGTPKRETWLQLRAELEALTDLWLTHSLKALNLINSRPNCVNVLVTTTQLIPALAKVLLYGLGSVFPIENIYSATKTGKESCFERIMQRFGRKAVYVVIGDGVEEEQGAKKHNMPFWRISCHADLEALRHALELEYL
# Target sequence (Q15475 whole entry, looked up): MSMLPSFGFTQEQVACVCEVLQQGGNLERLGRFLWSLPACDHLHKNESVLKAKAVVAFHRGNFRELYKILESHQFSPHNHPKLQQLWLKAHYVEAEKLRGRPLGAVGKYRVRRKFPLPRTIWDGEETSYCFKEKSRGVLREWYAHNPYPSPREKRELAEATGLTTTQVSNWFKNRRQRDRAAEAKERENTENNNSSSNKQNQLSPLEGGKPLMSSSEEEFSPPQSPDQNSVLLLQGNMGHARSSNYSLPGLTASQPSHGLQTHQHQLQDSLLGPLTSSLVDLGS
#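 AlphaScreen luminescence read after one hour at 37 °C in darkness. Pin-transferred compounds met GST-Six1 and His-Eya2 protein (5X stock 250 nM/500 nM) plus glutathione donor and Ni-chelate acceptor beads (5X, 50 ug/mL).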
# PINK1 modulator – A Quantitative High throughput Screen to Identify Chemical Modulators of PINK1 Expression. AID 624263, 2012. PINK1 immunofluorescence, high-content cytometry, 24 h. Potency, µM (series often up to 76.6 µM), inactives show top-dose activation (PINK1 increase), most hits filed as activators. 410,000 tested, 0.2% active; active = well fitted activation curve with a large enough effect; inconclusive = small, poorly fitted or top-dose-only effect; inactive = flat fitted curve, though single readings scatter; cell line not stated here;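 also: potency is read from the fitted curve at half-maximal effect; % of control where 0% means no effect; nearly all actives have a fitted effect of over 65% in size; a mitochondrial uncoupler was the plate control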
#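 Decision-based qHTS: stable cells, 24 h exposure to five compound concentrations, CCCP as control. Fixed cells stained for PINK1 plus nuclear, mitochondrial and cell markers, cytometer read.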
# Starred values were filed as active, the others as inactive; ? = inconclusive; · = not tested or not shown; & = joins results of further samples; [ ] = dose if it differs, or a comment. Hits appear at their usual frequency; any-hit rate near 1.3%.
SMILES,TRPML1 agonist,D2 ag,D2 PAM,CtBP-E1A inh,Six1-Eya2 blk,PINK1 modulator
CC(=O)NC1=NN(C(C)=O)C(C)(CCS(=O)(=O)c2ccc(Cl)c(Cl)c2)S1 (stereo unspecified),0.1,3.5,-10,-4,7,3.5%
CCN(CCO)c1nc(NCc2ccccc2)c2cnn(C)c2n1,0.4,-0.8,0,-2,-4,1.0%
COc1ccc(NC(=O)Nc2nc3c(s2)CCCC3)cc1,3.4,-0.8,-1,0,-15,1.8%
O=c1oc2ccccc2c(Nc2ccccc2)c1CN1CCCCC1,-1.0,-2.2,-17,1,-19,-1.4%
CCOC(=O)c1c(-c2cccs2)csc1NC(=O)CSc1ncn[nH]1,1.0,1.1,-8,-5,-9,-1.8%[38.3 µM]
N/C(=N\OC(=O)c1ccccc1)c1ccccn1,-0.6,11,9,3,-4,9.5%
Cc1nn(-c2ccccc2)c(/N=C/c2ccc(O)cc2)c1-c1ccccc1,0.2,-1.7,-5,3,-18,14%
COc1ccc(NC(=O)CCC2CCCC2)cc1OC,-0.6,-3.3,-29,-1,-3,-0.1%
CCOc1ccccc1NC(=O)c1ccc2c(=O)n3c(nc2c1)CCCCC3,0.3,-2.5,-7,-11,-15,1.7%
CCOC(=O)c1c(NC(=S)NC(=O)/C=C/c2cccs2)sc(C)c1C,-0.7,3.9,-11,9,-2,8.8%
O=C(NCc1cccs1)c1cc2c(s1)-c1ccccc1OC2,1.9,-6.6,-3,-1,27,1.5%
CCn1c(=O)c2c(nc3n2CCCN3c2cccc(C)c2)n(C)c1=O,1.2,-0.5,-10,1,-4,-0.2%
Cc1nc2ccccc2nc1N/N=C/c1ccc(O)cc1,·,-0.6,-6,-7,-23,1.3%
Cc1cccc(C)c1NC(=O)CN(Cc1ccccc1)Cc1ccccc1,0.3,-4.1,-8,2,11,3.3%
CC1(C(=O)NCCC#N)CCN1C(=O)C1(c2ccccc2)CC1 (stereo unspecified),-0.1,3.3,-2,-17,-3,0.7%
CCOCCCNC(=O)C1CCN(S(=O)(=O)c2c(C)noc2/C=C\c2ccc(OC)cc2)CC1,-0.7,-1.9,1,-5,4,?
O=C(c1cc(C2CC2)nn1-c1ccccc1)N1CCN(S(=O)(=O)c2ccccc2F)CC1,-0.2,-4.9,-27,0,7,-1.3%
O=C1C(c2ccccc2)=[N+]([O-])c2ccccc21,1.8,8.4,12,2,7,-1.5%
COc1ccccc1N1CCN(C2CCCN(C(=O)CCc3c(C)noc3C)C2)CC1 (stereo unspecified),-0.3,-3.9,-31,-18,0,1.0%
Cc1cccc(NC(=O)c2cccc(N3C(=O)C4C5C=CC(C6CC56)C4C3=O)c2)c1 (stereo unspecified),0.5,3.4,-6,3,3,2.3%

# Some of these compounds in order of formula weight, ascending:
SMILES,TRPML1 agonist,D2 ag,D2 PAM,CtBP-E1A inh,Six1-Eya2 blk,PINK1 modulator
COc1ccc(NC(=O)CCC2CCCC2)cc1OC,-0.6,-3.3,-29,-1,-3,-0.1%
CCN(CCO)c1nc(NCc2ccccc2)c2cnn(C)c2n1,0.4,-0.8,0,-2,-4,1.0%
O=C(c1cc(C2CC2)nn1-c1ccccc1)N1CCN(S(=O)(=O)c2ccccc2F)CC1,-0.2,-4.9,-27,0,7,-1.3%

# Remaining list, next part:
SMILES,TRPML1 agonist,D2 ag,D2 PAM,CtBP-E1A inh,Six1-Eya2 blk,PINK1 modulator
CCn1cc(C(=O)NCC2COc3ccccc3O2)c2cc(OC)c(OC)cc2c1=O (stereo unspecified),-0.5,-4.2,-16,5,-8,-1.5%
CCOC(=O)Cn1c(CN(Cc2ccccc2)Cc2ccccc2)nc2c1c(=O)n(C)c(=O)n2C,2.1,-0.6,-9,5,1,-1.9%
Cc1ccc(S(=O)(=O)N2CCCC(C(=O)NCc3ccc4c(c3)OCO4)C2)cc1 (stereo unspecified),-0.8,0.4,2,1,-5,-2.5%
Cc1cccc(C)c1-n1cccc1/C=C1/C(=N)N2C(=NC1=O)SN=C2S(C)(=O)=O,0.4,-1.8,-4,0,-1,5.8%
CCN(CC)C(=O)[C@H]1C[C@H](CC(=O)NC/C=C(\C)CCC=C(C)C)C(=O)N2CCc3c([nH]c4ccc(Cl)cc34)[C@]12C,-0.2,-1.3,-6,2,-1,1.7%
Cc1cn(CC2COC(C)(C)O2)c(=O)[nH]c1=O (stereo unspecified),-1.0,-2.2,-1,4,10,-0.6%
COc1ccccc1N1CCN(S(=O)(=O)c2ccc(-n3cnnn3)cc2)CC1,0.5&1.3,1.5,-8,·,-1,-0.8%&0.1%
COc1ccc(S(=O)(=O)N2CCC(C(=O)N(CC(C)C)C3CCS(=O)(=O)C3)CC2)cc1OC (stereo unspecified),-0.6,-2.3,0,1,6,2.5%
COc1cc(Cl)c(C)cc1NC(=O)CSC,0.2,-3.9,-8,3,1,-0.3%
COc1ccc(/C=N/n2c(SC)nnc2-c2ccccc2)cc1C,3.9,5.7,21,-2,-6,2.4%
Cn1c(NCc2ccncc2)nc2cc(-c3ccsc3)sc2c1=O,0.6,6.8,-5,0,-10,4.0%
CN(C)c1c([N+](=O)[O-])cc2[nH]c(=O)[nH]c2c1[N+](=O)[O-],-0.4,-5.8,-16,-19,-18,-2.6%
Cc1oc(-c2ccc(Cl)cc2)nc1CS(=O)CC(=O)NC1CCCCC1 (stereo unspecified),0.4,-2.3,-7,·,0,1.1%
COc1cc2cc(C(=O)N/N=C/c3cccc(OC)c3OC)[nH]c2cc1OC,1.4,-3.4,-9,-26,0,1.3%
COc1ccc2c(CC(=O)N[C@@H](Cc3ccccc3)C(=O)O)cc(=O)oc2c1,1.3,-0.4,1,0,-1,-0.7%
O=C(c1ccco1)N1CCN(Cc2cccnc2)CC1,-0.2,?,16,9,8,1.8%
O=c1nc2ccccc2c2n1CC(CN1CCN(c3cccc(Cl)c3)CC1)N2 (stereo unspecified),0.2,-1.5,0,-16,-5,?
O=C(NCCCc1ccc(F)cc1)C1CCC(=O)N(CCCN2CCCC2=O)C1 (stereo unspecified),-0.8,0.1,-1,·,1,1.1%
CCc1cc(C(=O)OC)c(NC(=O)CC2Sc3ccc(C(F)(F)F)cc3NC2=O)s1 (stereo unspecified),7.0,-1.8,1,9,-4,?
O=C(C1CCCCC1)N1CCN(C(=O)C2CCCCC2)CC1,-0.3,-0.6,-2,45,21,-0.1%[38.3 µM]
Fc1cc(F)cc(NC(=S)N2CCN(c3ncccn3)CC2)c1,-0.4,1.4,0,0,4,-0.4%
COc1ccc(S(=O)(=O)Nc2ccccc2C(=O)N2CCOCC2)cc1Br,0.2,-0.6,1,4,-1,-0.4%
COc1ccc(CNC(=O)C(=O)c2cn(CC(=O)N3CCOCC3)c3ccccc23)cc1,0.3,1.0,-3,·,-2,0.7%
O=C(c1ccc(Br)cc1)N1CCCC1,0.9,1.2,10,-6,0,1.2%
O=C(O)CSc1ncnc2nc[nH]c12,0.0,-3.9,-4,6,-1,-0.9%
Cc1ccccc1OCC(=O)OC(C)CN1CCN(C)CC1 (stereo unspecified),0.1,-0.3,-5,0,5,-1.2%
COc1cccc(-c2noc(Cn3nc(C)c([N+](=O)[O-])c3C)n2)c1,0.8,0.3,0,3,-1,1.9%
O=C(CCN1C(=O)c2ccccc2C1=O)NCc1ccncc1,0.6,-2.7,2,1,7,0.8%[38.3 µM]
COc1ccccc1N1C(=O)CC1(C#N)c1ccc(OCc2ccccc2)cc1 (stereo unspecified),0.4,-3.4,3,3,-5,0.1%
CC(=O)Nc1ccc(NC(=O)C2CC(=O)N(c3ccc(Cl)cc3)C2)cc1 (stereo unspecified),0.3,2.5,-24,3,0,14%
COc1ccccc1/C=C/C(=O)OCC(=O)NC1CCCCCCC1,1.7,0.3,1,-2,2,1.4%
Cn1cnc(Sc2ncnc3nc[nH]c23)c1[N+](=O)[O-],-1.0,-2.5,-8,·,-9,0.7%
CSc1nc(=O)[nH]nc1Sc1ccccc1,0.0,-4.1,-10,-1,8,-0.2%
Brc1ccc(-c2nc(N/N=C/c3cccnc3)c3ccccc3n2)cc1,0.5,0.1,5,-3,-5,4.1%
CCCCN(C(=O)c1ccc(-c2ccc(Cl)cc2)o1)c1c(N)n(CC(C)C)c(=O)[nH]c1=O,0.0,-3.3,-3,-7,5,-0.4%
CC1Oc2ccccc2C=C1/C=N/NC(=O)[C@@H](C)NC(=O)OC(C)(C)C (stereo partly specified),-0.7,-3.9,-2,-2,0,0.3%
CCC(=O)NC(Nc1sc2c(c1C(=O)OC)CCCC2)(C(F)(F)F)C(F)(F)F,-0.3,-0.9,-11,7,2,11%
CC(C)C(NC(=O)CNC(=O)OC(C)(C)C)C(=O)NCc1ccccc1 (stereo unspecified),0.5,-4.6,-10,2,3,-0.3%
Nc1cc(N)nc(SCC(=O)Nc2ccc3c(c2)OCO3)n1,0.5,-3.9,-3,0,10,-0.9%
O=C(/C=C/c1ccco1)Nc1sc2c(c1C(=O)O)CCC2,0.7,-1.9,-8,-6,-10,9.9%[38.3 µM]
Cc1onc(-c2ccccc2Cl)c1C(=O)Nc1nnc(-c2ccc(Cl)cc2Cl)s1,0.2,-2.4,-6,9,2,1.7%
Cc1[nH]n(-c2ccc([N+](=O)[O-])cc2)c(=O)c1/C=N/N1CCOCC1,0.7,-1.5,-4,12,-3,-1.4%
CC(=O)c1ccc(NC(=S)N2CCCC(C(F)(F)F)C2)cc1 (stereo unspecified),-0.7,-3.4,-5,14,-14,1.8%
C=CCNC(=O)CN1N=C(c2ccc(C)cc2)CCC1=O,-1.1,-3.3,-5,3,9,2.4%
O=c1cc(CSc2ccc(Cl)cc2)nc(-c2ccncc2)[nH]1,0.1,-2.4,-5,-5,-19,0.2%
O=C(NC1(Cc2ccc(O)cc2)CCCCC1)c1ccccc1,0.3,11,-1,-10,3,3.3%
Cc1cc(/C=C2\SC(=O)N(C)C2=O)c(C)n1-c1ccc(O)cc1,-0.2,3.9,5,·,2,1.6%
COCCCNC(=S)N(Cc1cccnc1)Cc1ccc(OC)c(OC)c1,0.0,-3.1,-2,-6,-2,-0.7%
CSc1nsc(SCC(=O)Nc2c(C)n(C)n(-c3ccccc3)c2=O)n1,-0.7,-1.0,3,5,1,2.1%
O=C1OC2(CCCCC2)OC(=O)C1=CNc1nccs1,-0.1,-3.8,3,2,-2,0.6%
Cc1cc(C)c(S(=O)(=O)Nc2ccc(O)cc2)cc1C,-1.1,5.6,5,2,-3,-2.8%
COc1ccc(-c2cc(C)no2)cc1S(=O)(=O)NCc1cccc(C)c1,-0.4,2.6,-2,-1,0,2.6%
